# VDR inh = vitamin D3 receptor (human) inhibition | P11473 | VDR-SRC2-3 peptide fluorescence polarization, 2 h | Potency, µM, for the others: max response, negative = inhibition, usual class: inhibitors | 400,000 tested, 0.93% active; active = well fitted inhibition curve with a large enough effect; inconclusive = small, poorly fitted or top-dose-only effect, or another doubt; inactive = no such curve, though single readings can be large or run the other way; note: series mostly up to about 120 µM
# Target sequence (P11473 whole entry, looked up): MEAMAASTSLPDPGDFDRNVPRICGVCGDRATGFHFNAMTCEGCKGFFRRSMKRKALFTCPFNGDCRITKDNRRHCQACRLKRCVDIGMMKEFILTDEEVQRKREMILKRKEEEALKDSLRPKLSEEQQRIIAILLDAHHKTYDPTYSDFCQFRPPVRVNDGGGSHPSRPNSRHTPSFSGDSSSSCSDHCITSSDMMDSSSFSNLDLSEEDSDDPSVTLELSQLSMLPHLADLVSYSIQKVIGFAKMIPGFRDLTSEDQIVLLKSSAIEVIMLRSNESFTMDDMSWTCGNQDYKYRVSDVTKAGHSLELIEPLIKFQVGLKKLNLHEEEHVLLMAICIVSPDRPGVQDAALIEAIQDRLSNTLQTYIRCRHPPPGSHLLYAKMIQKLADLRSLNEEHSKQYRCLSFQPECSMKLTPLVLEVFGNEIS
#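 Fluorescence polarization assay measuring small-molecule disruption of VDR binding to the coregulator peptide SRC2-3. Compounds were pin-transferred (23 nl) into the reagent mix and incubated 2 h at room temperature before reading.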
# * marks the source's active call; other numbers are inactive results; u = inconclusive; & = joins results of further samples; [ ] = dose if it differs, or a comment. % is set by controls: 0 for no effect and ±100 for the full control effect; potency is the fitted concentration of half-maximal effect. The list is partial; rates above refer to the full screens.
structure | VDR inh
Cc1cccc(S(=O)(=O)c2cn(Cc3ccccc3)c3cc(N4CCCCC4C)c(F)cc3c2=O)c1 (stereo not drawn) | -2%
CCOC(=O)c1c(S(=O)(=O)N2CCCC(C(=O)N(C)Cc3ccccc3)C2)c(C)n(C)c1C (stereo not drawn) | 13%
Cc1ccc(NCc2nnc(SCC(=O)NCc3ccco3)n2CC2CCCO2)c(C)c1 (stereo not drawn) | 4%
Cc1cccc(C)c1NC(=O)CNC(=O)C12CC3CC(CC(O)(C3)C1)C2 | 2%
COc1ccc(OC)c(S(=O)(=O)Nc2ccc3[nH]c(=O)[nH]c3c2)c1 | 6%&1%
CN1/C(=C\C=C2\N=C(c3ccc(F)cc3)OC2=O)C(C)(C)c2ccccc21 | -9%
Cc1ccc(C)c(NC(=O)CSc2n[nH]c(-c3ccncc3)n2)c1 | -14%
CCOC(=O)C1C(=O)NC(SCC(N)=O)=C(C#N)C1c1ccccc1OCC (stereo not drawn) | -15%
Cc1nonc1CN(C)C(=O)CC1C(=O)NCCN1Cc1ccccc1F (stereo not drawn) | -23%
Cc1ccc(CN(CC(=O)N/N=C/c2ccccc2[N+](=O)[O-])S(=O)(=O)c2ccc(C)cc2)cc1 | -5%
O=C(Cc1ccccc1)NCC(=O)OCC(=O)c1ccc(Cl)c([N+](=O)[O-])c1 | -2%
O=C(CSc1ccc2ccccc2c1)Nc1nc2ccccc2[nH]1 | 0%
Cc1ccc(/C([O-])=C(/C(=S)NCCN2CCOCC2)[n+]2ccccc2)cc1[N+](=O)[O-] | -13%
Cc1cc(C)nc(SCC(=O)N/N=C/c2cccnc2)n1 | 21%
CCn1c2ccc(F)cc2c2nnc(SCCN3CCCCC3)nc21 | 3%&3%
COc1cccc(C(=O)Nc2c3c(nn2-c2ccc(Cl)cc2)CS(=O)(=O)C3)c1OC | -5%
CCS(=O)(=O)Nc1cccc(-c2nc3cccnc3s2)c1 | -14%
COc1ccc(OC)c(NC(=O)Nc2c(O)ccc3ccccc23)c1 | -11%
CC1(C)CC(=O)C(C=NC(CCC(N)=O)C(=O)O)=C(O)C1 (stereo not drawn) | -5%
CCCCC(=O)Nc1cc(C)c2c(=O)oc3ccccc3c2n1 | -18%
O=C(O)CCCn1cc(NC(=O)c2c(F)cccc2F)cn1 | 5%
Cc1c(N=C2SCC(=O)N2/N=C\c2ccc(Br)cc2)c(=O)n(-c2ccccc2)n1C | -21%
O=C(Cn1c(=O)n(Cc2ccco2)c(=O)c2cc(Cl)ccc21)NCC1CCCO1 (stereo not drawn) | -3%
Cc1cc(C)c2c(CN3CCN(Cc4ccccc4)CC3)cc(=O)oc2c1 | 18%
O=S(=O)(c1ccc(NC(=S)NC2CC2)cc1)N1CCOCC1 | -5%
CCOc1ccc(CCNC(=O)C2CCN(c3nnc(-n4cccc4)s3)CC2)cc1 | 9%
CN1CCN(c2ncc(CN3C(=O)c4ccccc4C3=O)s2)CC1 | 14%
CC(=O)NC1(c2nnnn2CCOC(=O)Nc2ccc(Cl)cc2)CCCC1 | -2%
CCOC(=O)C(C)n1nc(-c2ccccc2)c2ccccc2c1=O (stereo not drawn) | 7%
N#CC1=C(N)Oc2cc(N)ccc2C1C1CCCCC1 (stereo not drawn) | -17%

# Compounds from the list above with fluorine:
structure | VDR inh
Cc1cccc(S(=O)(=O)c2cn(Cc3ccccc3)c3cc(N4CCCCC4C)c(F)cc3c2=O)c1 (stereo not drawn) | -2%
CN1/C(=C\C=C2\N=C(c3ccc(F)cc3)OC2=O)C(C)(C)c2ccccc21 | -9%
Cc1nonc1CN(C)C(=O)CC1C(=O)NCCN1Cc1ccccc1F (stereo not drawn) | -23%
CCn1c2ccc(F)cc2c2nnc(SCCN3CCCCC3)nc21 | 3%&3%
O=C(O)CCCn1cc(NC(=O)c2c(F)cccc2F)cn1 | 5%

# Taken from above:
# `Cc1c(N=C2SCC(=O)N2/N=C\c2ccc(Br)cc2)c(=O)n(-c2ccccc2)n1C` – VDR inh: -21%
# `COc1ccc(OC)c(S(=O)(=O)Nc2ccc3[nH]c(=O)[nH]c3c2)c1` – VDR inh: 6%&1%

# Remaining list, next part:
structure | VDR inh
CCCC(c1nnnn1C(C)(C)C)N1CCN(c2ccccc2)CC1 (stereo not drawn) | 4%
CCOc1ccc(CCNC(=O)CS(=O)Cc2nc(-c3ccc(C)cc3)oc2C)cc1 (stereo not drawn) | -5%
O=C(Nc1ccc(-c2nc3ccccc3o2)c(O)c1)c1cc(-n2cnnc2)ccc1Cl | 7%
Cc1cc(C)cc(NC(=O)c2ccc(NC(=O)c3ccco3)cc2)c1 | 7%
O=c1c2c3nc4ccccc4nc3n(/N=C/c3ccccn3)c2ncn1-c1ccccc1 | 11%
CCOc1ccc(CCNC(=O)COC(=O)c2nc3nc(C)cc(C)n3n2)cc1OCC | 1%
Nc1nc(CCl)nc(N(c2ccccc2)c2ccccc2)n1 | 12%
O=C(CSc1cccc[n+]1[O-])Nc1ccc(Br)cc1Br | -6%
Cc1ccc(NC(=O)CCN2CCC(C)CC2)cc1 | -9%
N#CC1=C(N)n2c(s/c(=C\c3cccs3)c2=O)=C(C#N)C1c1cccs1 (stereo not drawn) | 9%
O=C(NC1CC1)c1ccc2c(c1)N(Cc1ccccc1)CCS2 | 0%
O=C(Nc1cc(C(F)(F)F)ccc1-n1cncn1)c1ccc(Cl)cc1 | 1%
Cc1ccc2nc(CCc3ccc(N)cc3)[nH]c2c1 | -3%
COc1cc(N/C(N)=N/c2nc(C)cc(C)n2)cc(OC)c1 | -14%
Cc1ccc(N/N=C(\C#N)C(=N)N2CCCCC2)cc1 | 6%
C(=N\N1CCN(c2ccccn2)CC1)/c1ccccn1 | -8%
CN(C)c1ncc2ncc(=O)n(Cc3ccc(F)cc3)c2n1 | -16%
S=C(Nc1cccc(Cl)c1)N1CCN(Cc2ccccc2)CC1 | 16%
CC1=Nc2cc(C(=O)NCCc3ccc(Cl)cc3)ccc2Sc2ccc(C)cc21 | -3%
C=CCn1c(SCC(=O)NC2CCCCC2)nnc1-c1sc(N)nc1C | -6%
CCn1c(SCC(=O)N2CCOCC2)nc(O)cc1=O | u
CCOc1cc(S(=O)(=O)NC2CC2)c(OCC)cc1-n1cnnn1 | 4%
CCC(=O)N(Cc1ccc(S(N)(=O)=O)cc1)C1CC(=O)N(c2ccccc2)C1=O (stereo not drawn) | 2%
Cc1cccc(C)c1N(CC(=O)NC1CCCCC1)C(=O)c1csnn1 | -22%
COC(=O)c1ccc2c(=O)n(Cc3ccc(C(=O)NC(C)C)cc3)c(=S)[nH]c2c1 | -5%
O=C(O)/C(=C1\OC(=O)c2ccccc21)c1ccccc1 | 32%[activator]
CC(=O)Nc1sc2c(c1C#N)CCN(Cc1ccccc1)C2 | -17%
CCc1ccccc1NC(=O)c1cccc(NC(=O)/C=C/c2ccco2)c1 | -18%
CC(C)(O)/C=C1/Oc2ccccc2C1N1CCCCC1 (stereo not drawn) | 0%
COCCCn1c(SCC(=O)O)nc2cc(OC)c(OC)cc2c1=N | 12%
CCn1c(=O)c(=O)[nH]c2c(=O)oc3ccc(S(=O)(=O)Nc4ccccc4)cc3c21 | 0%
COC(=O)c1cc(Cl)ccc1NC(=O)CSc1ncc(S(=O)(=O)c2ccc(Br)cc2)c(=O)[nH]1 | u
CCOC(=O)NC(=O)/C(C#N)=C\Nc1ccc(Cl)cc1Cl | -2%
CCc1ccc(NC(=O)CSC2=C(C#N)C(c3ccc4c(c3)OCO4)CC(=O)N2)cc1 (stereo not drawn) | -12%
C/C=C/CSc1nc2c(c(=O)[nH]c(=O)n2C)n1CCC | -7%
CN(C)S(=O)(=O)N(CC(=O)NCCSCc1ccccc1)c1ccccc1 | 8%&-1%
O=C(CCCN1C(=O)c2ccccc2C1=O)NCc1ccc(F)cc1 | -4%
CCOC(=O)N1CCN(c2ccc(Cl)cc2)CC1 | 4%
Cc1ccc(Oc2nc3ccccn3c(=O)c2/C=C(\C#N)C(=O)NC2CCS(=O)(=O)C2)cc1 (stereo not drawn) | 79µM*
CCN(CC(=O)Nc1ccc(NC(C)=O)cc1)C(=O)c1ccc2c(c1)OCCO2 | -23%
COc1ccccc1N1CCN(C(=O)CSc2nc(-c3ccco3)cc(C(F)(F)F)n2)CC1 | 9%
COc1cc(C2=NOC(C(=O)N3CCCc4ccccc43)C2)cc(OC)c1OC (stereo not drawn) | 14%
CCCCN(C)C(=O)c1c[nH]c2ccc(S(=O)(=O)N3CCOCC3)cc2c1=O | -4%
CCn1c(SC(C)C(=O)NC2CCCc3ccccc32)nnc1-c1cccs1 (stereo not drawn) | 2%
COc1ccc(CCC(=O)OCC(=O)N(CC(C)C)c2c(N)n(Cc3ccccc3)c(=O)[nH]c2=O)cc1 | -16%
COc1cc(NC(=O)CSc2nc3ccccc3n2-c2ccccc2)c(C)cc1[N+](=O)[O-] | 8%
CCCCN1CC(COCc2ccccc2)Oc2cccc(OCCN3C(=O)[C@@H]4[C@H](C3=O)C3C=C[C@H]4C3)c2S1(=O)=O (stereo partly drawn) | -5%
CCN(CC)CCCNC(=O)c1oc2c(c1C)-c1nn(Cc3ccc(Cl)cc3)cc1CC2 | -6%
CCc1noc(C)c1C(=O)OCC(=O)Nc1ccc(F)cc1Cl | -10%
N=c1sccn1CC(=O)Nc1cccc2ccccc12 | 0%
COc1ccc(-n2c(=O)c(-c3cccc(F)c3)nc3cncnc32)cc1 | -8%
Cc1c(CCC(=O)NCc2ccc(F)cc2)c(=O)oc2cc(O)ccc12 | 1%
CC1CCC(C(=O)NNC(=O)c2cc(-c3ccco3)[nH]n2)CC1 (stereo not drawn) | -4%
COc1ccc(F)cc1C(=O)C1CCCN(C(=O)c2ccccc2N(C)C)C1 (stereo not drawn) | -1%
COc1ccc(CCN2CC(C(=O)OCc3ccccc3Cl)CC2=O)cc1OC (stereo not drawn) | -11%
O=C(Nc1cc(Cl)ccc1Oc1ccccc1)c1ccccc1F | 1%
Cc1nc2c(C(=O)NCc3ccccc3)cnn2c(C)c1Cc1ccc(F)cc1 | 3%
COc1cccc2c1OC1(CCN(C(C)C)CC1)N1N=C(c3cccnc3)CC21 (stereo not drawn) | 1%
COc1ccc(C(=O)C[n+]2cccc(C(N)=O)c2)cc1 | -8%
Clc1ccc(Nc2nc3ccccc3n3nnnc23)cc1 | -7%

# (next part)
structure | VDR inh
COc1cc(S(=O)(=O)n2cnc(C)c2)ccc1Cl | -11%
COc1cc(NC(=O)CCc2nnc3ccc(N4CCN(C)CC4)nn23)cc(OC)c1 | -1%
CCn1c(=O)c(-c2nc3ccccc3[nH]2)c(O)c2ccccc21 | -3%
CNC(=O)c1[nH]cnc1C(=O)Nc1ccc(F)cc1 | 22%
CCCC(=O)Nc1nnc(SCC(=O)Nc2ccc3c(c2)OCCO3)s1 | 2%
Cc1ccc(OCC(=O)N2CCN(S(=O)(=O)c3ccccc3[N+](=O)[O-])CC2)cc1 | 24%
Cc1cc(NC(=O)CCC(=O)N(CCc2ccccc2)C(C(=O)NC2CCCC2)c2ccco2)no1 (stereo not drawn) | -5%
Cc1ccccc1NC(=O)C1c2ccccc2Oc2ccccc21 | -6%
COc1ccc(NC2C=CS(=O)(=O)C2)cc1 (stereo not drawn) | -5%
Cc1ccc(S(=O)(=O)NCc2ccc(C(=O)NC3CCC(O)CC3)cc2)cc1C (stereo not drawn) | -3%
CC(=O)N/C(=C\c1ccc(F)cc1)C(=O)OCc1ccccc1 | -27%
Cc1ccc2cc3c(NC(=O)c4ccco4)nn(CC(C)C)c3nc2c1 | -10%
CCN(CC)C(=O)CSc1nc2cc3c(cc2c(=O)n1CCCC(=O)NCCc1ccc(OC)c(OC)c1)OCO3 | 1%
CCCCN(C)C(=O)CCCc1c[nH]c2ccccc12 | 5%
CCOc1ccc(Cn2nnc3c(=O)[nH]c(C4CCN(C(=O)c5ccccc5)CC4)nc32)cc1 | 9%
Cc1ccc(-n2ncc3c(NCCCc4ccccc4)ncnc32)cc1C | 1%
CCc1ccc(C(=O)COC(=O)c2cccs2)cc1 | 10%
CSc1cccc(N=C2C(=O)Nc3ccccc32)c1 | -26%
CCOC(=O)N1CCN(C(=O)c2cn(CC)c3ccc(S(=O)(=O)N4CCCCC4)cc3c2=O)CC1 | -20%
S=c1[nH]c(-c2ccccc2)cn1-c1ccccc1 | 11%
Cc1ccc(C)c(-n2cc(CN3CCCN(C=O)CC3)c(-c3ccccc3)n2)c1 | -14%
CCOc1ccc(C(=O)NCC(=O)OC(C)C(=O)NCc2ccco2)cc1OCC (stereo not drawn) | 4%
CCOCCCn1c(=NC(=O)c2ccco2)c(C(=O)OCC)cc2c(=O)n3cccc(C)c3nc21 | -25%
COc1ccc(C2=NCN(c3ccc(C)cc3)C(=S)N2)cc1 | 3%
O=C(O)/C=C\C(=O)Nc1ccc(Oc2ccc(Br)cc2)cc1 | -12%
COc1ccc(CNC(=O)NC2CCCCC2)cc1 | -9%
COc1ccc(N2C(=O)c3ccccc3NC2c2ccc(OC)c(Cn3cc([N+](=O)[O-])cn3)c2)cc1 (stereo not drawn) | 2%
CCCOC(=O)/C(C)=N\NC(=O)c1ccco1 | 1%
COC(=O)c1ccccc1NC(=O)Cn1c(=O)n(CCCC(=O)NCCc2ccc(OC)c(OC)c2)c(=O)c2ccccc21 | 10%
C=C1SC(=Nc2ccccc2Cl)N(C(=O)c2sc3ccccc3c2Cl)C1(C)C | -2%
COc1ccc(CNC(=O)C2CCN(S(=O)(=O)c3ccc4c(c3)CC(C)N4C(C)=O)CC2)cc1 (stereo not drawn) | 20%
Cc1nc2scc(-c3cccs3)c2c(=O)o1 | 9%
O=C(CC(C(=O)O)C1CCCO1)NCCc1ccc2c(c1)OCO2 (stereo not drawn) | -17%

# Compound activity as filed in PubChem BioAssay.
